BJeLR viab HTS – BJeLR cell viability reduction. BJeLR fibroblasts viability, CellTiterGlo ATP luminescence, 48 h; HRASV12, hTERT and SV40 LT/ST transformed. viability loss activity score, % (test concentration not listed). 30,000 compounds, 0.64% hits; in the data active = viability loss activity score above about 50%; about a fifth of its hits are not listed in these tables;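 note: higher score means fewer live cells and less ATP luminescence; stock transfer was 50 or 100 nL into about 30 µL; 0% = vehicle wells and 100% = a reference killing control; one replicate is shown; the record names a cut of 85%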
A1 inh – blocks A1 activity; MEF A1-2A-BIM cells, caspase-Glo luminescence, 3 h; percent of clofoctol signal, DMSO as zero; caspase activation, % (concentration not given with the values); 21,000 compounds, 0.51% hits; AID 2241;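 active = most replicate scores above 10, or exactly half above 10 with mean activity above 10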;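 note: effector caspase 3 and 7 activity cleaving a DEVD luciferin substrate; 50 nL library stock added to about 30 µL; numbers are from one replicate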
* hit, by the source's call; / = no result given.

SMILES	BJeLR viab HTS	A1 inh
CCn1cc(CN(Cc2ccccc2)C(=S)Nc2cc(C)ccc2C)c2ccccc21	0.0	0.3
COc1ccc(-c2coc3c(C)c4oc(=O)c5cc(OC)ccc5c4cc23)cc1	-3.6	/
O=C(CCCn1c(=O)c2ccccc2n(CC(=O)c2ccc(F)cc2)c1=O)NC1CCCC1	-6.1	/
CCCOc1cc(N)ccc1C(=O)OCCN(CC)CC	3.9	0.2
C[C@H]1CN([C@@H](C)CO)C(=O)c2cc(NS(=O)(=O)c3cn(C)cn3)ccc2O[C@H]1CN(C)S(=O)(=O)c1ccccc1	-2.6	-0.1
Cc1noc(C)c1NC(=O)N(C)C[C@H]1Oc2c(NC(=O)C3CCCCC3)cccc2C(=O)N([C@@H](C)CO)C[C@H]1C	-0.4	/
C[C@@H]1CN([C@@H](C)CO)C(=O)c2cc(NS(=O)(=O)c3ccccc3)ccc2O[C@H]1CN(C)CC1CC1	-2.9	-0.2
COc1ccc(C(O)c2nccn2Cc2ccccc2)cc1OC (stereo unspecified)	4.9	-1.3
C[C@H]1CN([C@@H](C)CO)C(=O)c2cccc(NC(=O)Nc3ccc(F)cc3)c2O[C@H]1CN(C)S(=O)(=O)c1ccc(F)cc1	-1.3	/
O=C(O)CCNC(=O)c1ccco1	-3.2	0.1
CNC[C@@H]1Oc2c(NC(=O)Nc3ccccc3)cccc2C(=O)N([C@H](C)CO)C[C@H]1C	0.3	/
COc1ccc(C[C@H](N)C(=O)N[C@@H]2[C@@H](CO)OC(n3cnc4c(N(C)C)ncnc43)[C@@H]2O)cc1 (stereo partly specified)	2.5	2.4
Cc1noc(C)c1S(=O)(=O)Nc1cccc2c1O[C@H](CN(C)CC1CCCCC1)[C@H](C)CN([C@H](C)CO)C2=O	-0.5	/
CC(C)c1cnc(NC(=O)Cc2ccccc2)s1	-9.8	-2.0
C[C@H](CO)N1C[C@H](C)[C@H](CN(C)C(=O)NC2CCCCC2)Oc2c(NC(=O)C3CC3)cccc2C1=O	2.8	/
C[C@H](CO)N1C[C@H](C)[C@H](CN(C)S(=O)(=O)c2ccc(Cl)cc2)Oc2c(NC(=O)Nc3ccc(F)cc3)cccc2C1=O	4.8	/
Cc1ccc(S(=O)(=O)N(C)C[C@H]2Oc3ccc(NC(=O)Cc4cn(C)c5ccccc45)cc3C(=O)N([C@H](C)CO)C[C@@H]2C)cc1	0.6	1.2
CS(=O)(=O)c1scc(-c2cccs2)c1C#N	-7.1	-0.4
O=C(NCc1cccs1)C1CCC(CNS(=O)(=O)c2ccccc2)CC1 (stereo unspecified)	5.6	0.8
S=c1nc[nH]c2c1nnn2Cc1ccccc1Cl	-2.4	0.3
COc1ccc(NC(=O)Nc2cccc3c2O[C@H](CN(C)C)[C@@H](C)CN([C@@H](C)CO)C3=O)cc1	1.6	/
C[C@@H]1CN([C@@H](C)CO)C(=O)c2cc(NC(=O)NC3CCCCC3)ccc2O[C@H]1CN(C)S(=O)(=O)c1cn(C)cn1	-1.7	-0.1
C[C@@H]1CN([C@H](C)CO)C(=O)c2cccc(NC(=O)Nc3ccc(F)cc3)c2O[C@H]1CN(C)Cc1ccc(Oc2ccccc2)cc1	-4.6	/
C[C@@H]1CN([C@H](C)CO)C(=O)c2cc(NC(=O)Nc3ccc4c(c3)OCO4)ccc2O[C@@H]1CN(C)Cc1ccc(C(=O)O)cc1	2.1	0.1
COc1ncnc(OC)c1C	-1.7	-0.6
COc1ccccc1NC(=O)COc1ccc2oc3c(c2c1)CCCC3	1.5	-1.1
CN(C(=O)c1ccc2c(=O)n3c(nc2c1)CCCCC3)C1CCCCC1	-0.6	/
CCOC(=O)c1cnc2c(c(C)nn2C)c1Sc1nnc(SC)s1	45.4	-0.2
Cc1noc(C)c1S(=O)(=O)Nc1cccc2c1O[C@H](CN(C)C(=O)Nc1ccc3c(c1)OCO3)[C@H](C)CN([C@@H](C)CO)C2=O	1.5	/
Cc1noc(C)c1NC(=O)N(C)C[C@@H]1Oc2c(NC(=O)C3CCOCC3)cccc2C(=O)N([C@@H](C)CO)C[C@H]1C	7.7	/
CC1(CO)CC(=O)CC2(C)C3=C(CCC12)C(=O)OC3 (stereo unspecified)	-10.9	0.0
C[C@H](CO)N1C[C@H](C)[C@H](CN(C)C(=O)NC2CCCCC2)Oc2c(NS(=O)(=O)c3ccccc3)cccc2C1=O	2.1	/
C[C@@H]1CN([C@@H](C)CO)C(=O)c2cccc(NC(=O)Nc3ccccc3)c2O[C@@H]1CN(C)CC1CCCCC1	5.2	/
C=C1CCC(C)C(C)(CCC2=CCOC2=O)C/C=C\C=C/1C(=O)O (stereo unspecified)	0.5	-0.8
C[C@@H]1CN([C@@H](C)CO)C(=O)c2cc(NC(=O)CCN3CCOCC3)ccc2O[C@@H]1CN(C)S(=O)(=O)c1ccc(F)cc1	-0.2	0.0
CSc1scc2c1-c1nc(SCC(=O)C(C)(C)C)ncc1CC2	0.2	-0.2
COc1cc(O)c(CC=C(C)C)cc1C(=O)/C=C/c1ccc(O)c(CC=C(C)C)c1	-4.1	-0.2
CC(=O)OC[C@H]1O[C@@H](Oc2c(-c3ccc(O)cc3)oc3cc(O)cc(O)c3c2=O)[C@H](O)[C@@H](O)[C@@H]1O	-5.0	-0.1
COc1ccc(NC(=O)Nc2cccc3c2O[C@@H](CN(C)S(=O)(=O)c2cn(C)cn2)[C@H](C)CN([C@H](C)CO)C3=O)cc1	-7.8	/
C[C@@H]1CN([C@@H](C)CO)C(=O)c2cccc(NC(=O)C3CCCCC3)c2O[C@@H]1CN(C)Cc1ccc(-c2ccccc2)cc1	-2.4	/
C[C@H](CO)N1C[C@H](C)[C@H](CN(C)S(=O)(=O)c2cccs2)Oc2c(NC(=O)Nc3ccc4c(c3)OCO4)cccc2C1=O	1.6	/
C[C@@H]1CN([C@@H](C)CO)C(=O)c2cc(NC(=O)CCC(F)(F)F)ccc2O[C@H]1CN(C)C(=O)NC1CCCCC1	2.5	0.7
C[C@@H]1CN([C@H](C)CO)C(=O)c2cc(N(C)C)ccc2O[C@H]1CN(C)C(=O)Nc1ccc(C(F)(F)F)cc1	-2.6	0.0
CC1(C)CC(CC(=O)N2CCOCC2)(c2ccccc2)CCO1 (stereo unspecified)	-1.6	-0.7
COc1ccc(NC(=O)C2CCCCN2S(=O)(=O)c2ccc(C(C)(C)C)cc2)cc1 (stereo unspecified)	3.0	/
C[C@H]1CN([C@@H](C)CO)C(=O)c2cc(NC(=O)CCCCCC(=O)Nc3ccccc3N)ccc2O[C@H]1CN(C)C(=O)Nc1ccccc1	-3.6	/
c1nc(N2CCOCC2)nc(N2CCOCC2)n1	0.3	0.1
C[C@H]1CN([C@@H](C)CO)C(=O)c2cccc(NC(=O)Nc3ccc(F)cc3)c2O[C@H]1CN(C)S(C)(=O)=O	1.0	/
CCCOC(=O)c1ccc(NC(=O)c2ccc(C)c(Br)c2)cc1	1.4	-1.2
C[C@H]1CN([C@@H](C)CO)C(=O)c2cc(NC(=O)Cn3cnnn3)ccc2O[C@H]1CN(C)Cc1ccc(Cl)c(Cl)c1	-0.3	-0.4

Further entries follow:
SMILES	BJeLR viab HTS	A1 inh
CCOc1ccc(C(=O)Nc2cccc(NC(=O)c3ccccc3)c2)cc1Br	3.1	-0.1
COC(=O)CN1C=C(C(=O)OC)C(c2ccc(Cl)cc2)C(C(=O)OC)=C1	2.8	0.3
Nc1cc(C(F)(F)F)ccc1Oc1ccc(C2CCCCC2)cc1	4.6	11.4*
O=c1[nH]cnc2cc(-c3ccccc3)sc12	1.7	-3.5
Cc1ccc(S(=O)(=O)N(C)C[C@H]2Oc3ccc(NS(=O)(=O)c4ccccc4)cc3C(=O)N([C@@H](C)CO)C[C@@H]2C)cc1	-1.7	0.2
CCOC(=O)c1c(C)n(O)c2ccc3nonc3c12	-0.5	-0.7
CCC(=O)NC(C)C(c1cccs1)N1CCN(c2ccccc2)CC1 (stereo unspecified)	-8.6	/
Cc1noc(C)c1S(=O)(=O)Nc1cccc2c1O[C@@H](CN(C)C)[C@@H](C)CN([C@H](C)CO)C2=O	2.7	/
C[C@@H]1CN([C@H](C)CO)C(=O)c2cc(NC(=O)c3ccncc3)ccc2O[C@H]1CN(C)C(=O)NC1CCCCC1	-0.5	-0.7
CN=CC1=C(O)c2ccccc2C1=O	-5.0	-0.5
Cc1cccc(C(=O)OCCSc2nc(C)c3cc(C)c(C)cc3n2)c1	2.3	/
C[C@@H]1CN([C@@H](C)CO)C(=O)c2cc(NC(=O)Cn3cnnn3)ccc2O[C@H]1CN(C)S(=O)(=O)c1ccc(F)cc1	-2.6	-0.5
Cc1noc(C)c1NC(=O)Nc1cccc2c1O[C@H](CN(C)CC1CCCCC1)[C@H](C)CN([C@H](C)CO)C2=O	3.4	/
C[C@H](CO)N1C[C@H](C)[C@@H](CN(C)CC2CCCCC2)Oc2ccc(NC(=O)Nc3ccc4c(c3)OCO4)cc2C1=O	-2.0	-0.2
COc1ccc(NC(=O)Nc2cccc3c2O[C@@H](CN(C)Cc2ccccc2)[C@H](C)CN([C@H](C)CO)C3=O)cc1	2.8	/
COc1ccc(S(=O)(=O)N(C)C[C@H]2Oc3c(NC(=O)c4nc5ccccc5s4)cccc3C(=O)N([C@H](C)CO)C[C@@H]2C)cc1	0.7	/
CC(C)(CC(=O)O)CC(=O)N1CCN(C2c3ccccc3-c3ccccc32)CC1	-2.4	0.1
C[C@H](CO)N1C[C@H](C)[C@H](CN(C)CC2CCCCC2)Oc2ccc(NC(=O)CCCN(C)C)cc2C1=O	-1.0	-0.7
O=C(C[n+]1ccccc1)c1cc2ccccc2oc1=O	3.8	1.4
N#Cc1c(OCC(F)(F)F)ccc(Br)c1OCC(F)(F)F	-3.3	0.1
Cc1cc(C(=O)Nc2cccc3c2O[C@@H](CN(C)S(=O)(=O)c2ccc(Cl)cc2)[C@H](C)CN([C@@H](C)CO)C3=O)n(C)n1	-4.6	/
C[C@H](CO)N1C[C@H](C)[C@H](CN(C)C(=O)Nc2ccccc2)Oc2ccc(NC(=O)c3ccncc3)cc2C1=O	5.5	-0.4
CNC(=S)N1CCc2sccc2C1C (stereo unspecified)	-0.5	1.0
COc1ccc(S(=O)(=O)N(C)C[C@@H]2Oc3c(NC(=O)C4CC4)cccc3C(=O)N([C@H](C)CO)C[C@H]2C)cc1	0.4	/
C[C@H](CO)N1C[C@H](C)[C@H](CN(C)C(=O)Nc2ccc3c(c2)OCO3)Oc2c(NC(=O)Nc3ccc(C(F)(F)F)cc3)cccc2C1=O	-0.3	/

Printed as active in A1 inh, among the entries above:
Structure | A1 inh
Nc1cc(C(F)(F)F)ccc1Oc1ccc(C2CCCCC2)cc1 | 11.4*

Going on with the list:
SMILES	BJeLR viab HTS	A1 inh
C[C@H](CO)N1C[C@H](C)[C@H](CN(C)Cc2ccc(Cl)c(Cl)c2)Oc2ccc(NS(C)(=O)=O)cc2C1=O	2.9	0.0
COC(=O)c1ccc(C(=O)OC)cc1	3.2	-1.2
Cc1ccc2c(c1)oc(=O)n2CC(=O)c1ccccc1	2.4	/
CNC[C@@H]1Oc2c(NC(=O)C3CC3)cccc2C(=O)N([C@H](C)CO)C[C@H]1C	1.6	/
O=C(O)CC(NC(=O)Cc1ccc(Cl)cc1)c1ccc(F)cc1 (stereo unspecified)	-1.1	/
Cc1nn(-c2ccccc2)c(C)c1C(=O)Oc1ccccc1	-3.9	-0.3
O=C(Nc1ccc(Oc2ccccc2)cc1)C1CCCO1 (stereo unspecified)	0.4	0.0
Cc1cc(C(=O)Nc2cccc3c2O[C@H](CN(C)C)[C@@H](C)CN([C@H](C)CO)C3=O)n(C)n1	-0.9	/
CC(C)(C)c1cs/c(=N/c2ccccn2)n1-c1ccc(Cl)cc1	1.2	-0.6
Cc1cccc(NC2CS(=O)(=O)CC2O)c1 (stereo unspecified)	-7.9	/
C[C@@H]1CN([C@H](C)CO)C(=O)c2cccc(NC(=O)c3nc4ccccc4s3)c2O[C@H]1CN(C)Cc1ccc(Cl)c(Cl)c1	-6.7	/
C[C@H]1CN([C@@H](C)CO)C(=O)c2cccc(NC(=O)Nc3ccc(F)cc3)c2O[C@H]1CN(C)Cc1ccc(-c2ccccc2)cc1	-0.5	/
C[C@@H]1CN([C@H](C)CO)C(=O)c2cccc(NS(=O)(=O)c3cn(C)cn3)c2O[C@@H]1CN(C)Cc1ccc(Oc2ccccc2)cc1	-2.1	/
CCOC(=O)C1CCN(C(C)=C2C(=O)c3ccccc3C2=O)CC1	-1.4	/
CCN(CC)S(=O)(=O)c1ccc(-c2cc(C(=O)OC)sc2C(F)(F)F)cc1	4.5	-0.4
O=C(N/C(=C/c1ccccc1)C(=O)N1CCCCCC1)c1ccccc1	3.3	-0.1
COc1ccc(NC(=S)NCCc2c[nH]c3ccccc23)c(OC)c1	-4.3	0.1

Single values from the results shown:
`Cc1nn(-c2ccccc2)c(C)c1C(=O)Oc1ccccc1` in BJeLR viab HTS has -3.9
`C[C@H]1CN([C@@H](C)CO)C(=O)c2cccc(NC(=O)Nc3ccc(F)cc3)c2O[C@H]1CN(C)Cc1ccc(-c2ccccc2)cc1` in BJeLR viab HTS has -0.5
`O=C(Nc1ccc(Oc2ccccc2)cc1)C1CCCO1` (stereo unspecified) in A1 inh has 0.0

Some of the entries so far, with each value named:
C[C@@H]1CN([C@H](C)CO)C(=O)c2cccc(NC(=O)c3nc4ccccc4s3)c2O[C@H]1CN(C)Cc1ccc(Cl)c(Cl)c1
  BJeLR viab HTS: -6.7 | A1 inh: /
C[C@@H]1CN([C@H](C)CO)C(=O)c2cccc(NS(=O)(=O)c3cn(C)cn3)c2O[C@@H]1CN(C)Cc1ccc(Oc2ccccc2)cc1
  BJeLR viab HTS: -2.1 | A1 inh: /

Source: PubChem BioAssay (Broad Institute)

Not all compounds are listed (hit frequency here may not be typical).
